POLK inh = DNA polymerase kappa (human) inhibition | 0.53% of 400,000 active | Q9UBT6 | purified Pol kappa, fluorescent DNA synthesis assay, 10 min | AID 588579 | Potency, µM (top dose mostly 107 µM), without a hit: at the highest dose activity, negative = inhibition, usual class: inhibitors; further: on the % scale 0 is the no-effect control and ±100 the full control effect
Target sequence (Q9UBT6 whole entry, looked up): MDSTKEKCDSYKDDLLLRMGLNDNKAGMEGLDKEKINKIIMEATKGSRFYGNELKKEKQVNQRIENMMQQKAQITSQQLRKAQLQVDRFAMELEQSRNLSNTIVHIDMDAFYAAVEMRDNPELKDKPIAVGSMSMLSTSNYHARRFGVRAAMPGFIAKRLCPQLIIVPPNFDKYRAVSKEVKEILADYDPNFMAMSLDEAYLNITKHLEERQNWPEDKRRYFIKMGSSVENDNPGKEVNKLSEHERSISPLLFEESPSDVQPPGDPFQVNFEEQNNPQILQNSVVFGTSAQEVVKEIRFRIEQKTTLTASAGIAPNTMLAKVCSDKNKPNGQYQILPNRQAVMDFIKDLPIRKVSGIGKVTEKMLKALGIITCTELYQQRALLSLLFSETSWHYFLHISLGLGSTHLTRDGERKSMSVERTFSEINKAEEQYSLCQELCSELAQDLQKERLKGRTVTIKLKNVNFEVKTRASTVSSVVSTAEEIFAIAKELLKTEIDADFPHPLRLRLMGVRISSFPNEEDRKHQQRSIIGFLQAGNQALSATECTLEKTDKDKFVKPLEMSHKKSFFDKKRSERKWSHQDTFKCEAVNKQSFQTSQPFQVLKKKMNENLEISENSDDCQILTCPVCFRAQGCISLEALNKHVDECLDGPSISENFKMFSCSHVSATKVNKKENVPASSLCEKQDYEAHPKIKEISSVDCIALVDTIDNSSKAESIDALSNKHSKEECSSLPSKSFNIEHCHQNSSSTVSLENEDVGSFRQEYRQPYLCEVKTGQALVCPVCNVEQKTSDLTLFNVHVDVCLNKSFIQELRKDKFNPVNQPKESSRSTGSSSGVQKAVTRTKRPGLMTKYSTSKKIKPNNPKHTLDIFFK
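10 nM Pol kappa preincubated 15 min at room temperature with compounds, then reaction started with substrate at 50 nM final. Fluorescence read kinetically at 0 and 10 min; buffer-only wells served as negative control.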
Apoferritin bind = binds horse apoferritin like a general anesthetic. P02791. apoferritin/1-aminoanthracene competitive binding, fluorescence. Potency, µM (titrated, usually from 77.5 µM), for inactives: at the highest dose activity change, negative = displacement, hits mostly inhibitors. 0.074% of 350,000 active. AID 485281; further: on the % scale 0 is the no-effect control and ±100 the full control effect; nearly all actives have a fitted effect of over 20% in size
Target sequence (P02791 2-175 limits assumed): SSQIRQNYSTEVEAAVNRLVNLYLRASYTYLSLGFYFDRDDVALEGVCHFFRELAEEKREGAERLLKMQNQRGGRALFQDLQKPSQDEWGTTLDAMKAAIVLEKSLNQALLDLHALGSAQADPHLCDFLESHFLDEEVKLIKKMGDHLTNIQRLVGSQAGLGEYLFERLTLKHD
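Horse-spleen apoferritin (10 uM) in 50% saturated 1-aminoanthracene in PBS was incubated 10 min at room temperature with compound. Fluorescence (ex 380, em 535 nm) was normalized to free and bound 1-AMA, with concentration-response fitted by a four-parameter Hill equation.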
POLB inh = DNA polymerase beta (human) inhibition. P06746. Pol beta primer extension/strand displacement, fluorescence kinetic. Potency, µM (titrated, usually from 114 µM), inactives show top-dose activity change, negative = inhibition, actives largely listed as inhibitors. 1.3% of 340,000 active; further: on the % scale 0 is the no-effect control and ±100 the full control effect
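Homogeneous kinetic assay of primer extension and strand displacement by 10 nM Pol beta, preincubated 15 min at room temperature with compound before 50 nM substrate (final) was added. Read at 0 and 10 min; four-parameter Hill fit.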
ERG Ets-DNA blk = inhibitors of human ERG Ets domain-DNA interaction; Potency, µM (series often up to 76.9 µM), inactives show top-dose FP activity, negative = inhibition, usual class: inhibitors; P11308; 0.028% of 370,000 active; fluorescence polarization, His-ERG Ets domain / labelled DNA; active means well fitted inhibition curve with a large enough effect in the polarisation, with a control signal flat; inconclusive means small, poorly fitted or top-dose-only effect, or effect the other way, or a change in a side signal; inactive means no such curve, though single readings can be large or run the other way; the % refers to the polarisation;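 further: polarization taken with two DNA probes labelled with fluorescein and Texas red; % of control where 0% means no effect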
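His-tagged ERG Ets domain (1 uM in the protein solution; 300mM KCl, 50mM Tris-HCl, 1mM EDTA, 1mM DTT, pH 7.5) received compound, then a probe mix of 5 nM fluorescein-DNA and 100nM Texas-615-DNA. Fluorescence polarization was read for both dyes.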
POLI inh = blocks human DNA polymerase iota activity. Pol iota fluorescent replication assay, 10 min. Potency, µM (top dose mostly 115 µM), without a hit: at the top dose activity, negative = inhibition, usual class: inhibitors. 1% of 390,000 active. AID 588590
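Pol iota at 10 nM preincubated 15 min with compounds at room temperature; reaction started with fluorescent substrate, 50 nM final. Fluorescence read kinetically at 0 and 10 min; buffer-only wells as negative control.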
ALOX12 inh = blocks human arachidonate 12S-lipoxygenase; purified 12hLO, xylenol orange hydroperoxide absorbance; Potency, µM (doses to about 108 µM), for the others: at the top dose activity change, negative = inhibition, most hits filed as inhibitors; 1.1% of 580,000 active; further: on the % scale 0 is the no-effect control and ±100 the full control effect
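Purified human 12hLO (150 nM final) in 25 mM Hepes, 0.01% Triton X-100, pH 7.0 was preincubated 15 min at room temperature with compound. Then 40 uM arachidonic acid was added, 30 min. Hydroperoxide was read by Fe-XO absorbance ratio 573/405 nm.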
APEX1 inh = inhibitors of human APE1 endonuclease. Potency, µM (titrated, usually from 65.8 µM), for inactives: at the top dose activity change, negative = inhibition, usual class: inhibitors. P27695. recombinant APE1, TAMRA/BHQ-2 abasic DNA cleavage fluorescence. 0.35% of 350,000 active. AID 2517;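 further: plate controls were vehicle for no effect and reference inhibitor for full effect; nearly all actives have a fitted effect of over 55% in size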
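Readout is kinetic fluorescence (ex 525, em 598 nm) from cleavage of 50 nM TAMRA/BHQ-2 THF abasic duplex by 0.75 nM APE1, compound added 15 min beforehand at RT.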
BLM inh = blocks DNA unwinding by human BLM helicase | P54132 | recombinant BLM DNA unwinding, fluorescence dequenching | Potency, µM (series often up to 56.1 µM), for inactives: top-dose activity change, negative = inhibition, most hits filed as inhibitors | 0.2% of 350,000 active | AID 2528;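 further: plate controls were vehicle for no effect and no enzyme for full effect; nearly all actives have a fitted effect of over 35% in size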
* hit, by the source's call; ? = inconclusive; · = not tested or not shown; & = joins results of further samples; ! = not confirmed by another sample; [ ] = another dose, or the depositor's remark. Unless noted, the call rests on the fitted dose curve; in most records, active means well fitted curve in the direction sought with a large enough effect; inconclusive means small, poorly fitted or top-dose-only effect, or another doubt; inactive means no such curve, though single readings can be large; an effect the other way counts as inactive or inconclusive. Potency means the concentration at half of the fitted maximal effect. Some of the compounds tested. The share of hits here may be higher or lower than overall.

no.	SMILES	POLK inh	Apoferritin bind	POLB inh	ERG Ets-DNA blk
1	Nc1c(Br)cc(Br)cc1CNC1CCC(O)CC1 (stereo not given)	-2.1%	-7.8%	4.2%	12.5%&-11.9%
2	C[C@@]12C=CC(=O)C=C1CC[C@H]1[C@H]3CC[C@](O)(C(=O)CO)[C@]3(C)CC(=O)[C@@H]12	-0.4%[12 µM]	-4.9%[29.3 µM]	·	·
3	CC(=O)[C@H]1CCC2C3CC=C4C[C@@H](O)CC[C@]4(C)C3CC[C@@]21C (stereo not given in full)	1.4%	·	·	1.9%
4	c1ccc(Nc2ccccc2)cc1	-14.7%	·	·	0.7%
5	CN1CCN(CCCN2c3ccccc3Sc3ccc(Cl)cc32)CC1	-9.7%[60.1 µM]	-15.7%	2.6%	-4.1%&-7.0%
6	Cc1ccccc1N1C(=O)c2cc(S(N)(=O)=O)c(Cl)cc2N[C@H]1C	-3.9%[12 µM]	-2.6%[29.3 µM]	·	·
7	C[n+]1cc(C(=O)N2CCCCC2)ccc1/C=C/c1c[nH]c2ccccc12	-16.4%	4.6%	2.9%	32.5%[activator]
8	CC(=O)OCC(=O)[C@@]1(O)CC[C@H]2[C@@H]3CCC4=CC(=O)C=C[C@]4(C)[C@H]3[C@@H](O)C[C@@]21C	9.8%	1.6%	-1.9%	?
9	Cc1nc2sccn2c(=O)c1CCN1CCC(=C(c2ccc(F)cc2)c2ccc(F)cc2)CC1	-8.2%[60.1 µM]	?	0.3%	0.6%
10	Cc1cn([C@@H]2C[C@H](N=[N+]=N)[C@H](CO)O2)c(=O)[nH]c1=O	-4.9%[12 µM]	2.1%[29.3 µM]	·	·
11	CS(=O)(=O)c1ccc([C@H](O)[C@H](CO)NC(=O)C(Cl)Cl)cc1	4.9%[19.4 µM]	-2.5%[29.3 µM]	·	·
12	CC1(C)O[C@@H]2C[C@H]3[C@@H]4CCC5=CC(=O)CC[C@]5(C)[C@@]4(F)[C@@H](O)C[C@]3(C)[C@]2(C(=O)CCl)O1	11.0%	·	·	12.0%
13	CCC1(c2ccccc2)C(=O)NCNC1=O	9.5%[60.1 µM]	2.6%	?	-3.4%
14	C#C[C@]1(O)CCC2C3CCC4=CC(=O)CC[C@@H]4C3CC[C@@]21C (stereo not given in full)	-10.9%	-8.4%	2.8%	?
15	CNC[C@H](O)c1cccc(O)c1	-8.6%[60.1 µM]	1.7%	10.1%	8.3%

no.	POLI inh	ALOX12 inh	APEX1 inh	BLM inh
1	13.0%&-1.5%	-43.6%&-2.2%	22.1%	-0.4%
2	·	·	0.8%[21 µM]	1.2%[21.4 µM]
3	32.5%[activator]	-6.0%	10.9%	·
4	14.0%	-0.9%	36.5%&-1.9%[activator]	·
5	?	?	-3.4%&2.7%&-5.9%&13.4%&-1.1%	-3.7%
6	·	·	18.2%[21 µM]	1.5%[21.4 µM]
7	9.3%	20µM*	-0.6%	9.1%
8	32.1%[activator]	8.9%	-1.0%&3.9%	-2.6%
9	-1.6%	?	?	-18.2%&-11.2%
10	·	·	13.3%[21 µM]	3.2%[21.4 µM]
11	·	·	·	2.7%[21.4 µM]
12	0.0%	-1.1%	-9.9%	·
13	?	-1.4%	13.3%	-2.8%
14	-4.5%	-2.1%	-1.5%	-2.7%
15	12.4%	?	-10.7%&4.2%	-2.7%&-9.7%

Going on with the list:
no.	SMILES	POLK inh	Apoferritin bind	POLB inh	ERG Ets-DNA blk
16	Nc1ccc(S(=O)(=O)Nc2cnc3ccccc3n2)cc1	-17.3%	-8.0%	20.2%	-4.5%&0.1%
17	Cc1c(O)cccc1C(=O)N[C@@H](CSc1ccccc1)[C@H](O)CN1C[C@H]2CCCC[C@@H]2C[C@@H]1C(=O)NC(C)(C)C	·	·	·	·
18	CC(C)Cn1cnc2c(N)nc3ccccc3c21	-4.4%	-6.8%	31.2%[activator]	-7.5%
19	O=c1ccc2ccccc2o1	-1.8%	-0.5%&-4.7%	13.4%	2.1%
20	CNc1ccccc1	-3.3%	·	·	-16.9%
21	Nc1[nH]c(=O)ncc1F	11.4%	5.2%	21.3%&17.2%	10.6%
22	CC(=O)[C@H]1CC[C@H]2[C@@H]3CC=C4C[C@@H](O)CC[C@]4(C)[C@H]3CC[C@]12C	-1.1%	·	·	2.5%
23	Clc1ccc([C@H](Cn2ccnc2)OCc2c(Cl)cccc2Cl)c(Cl)c1	-17.2%[19.4 µM]	-6.0%[29.3 µM]	·	·
24	COc1cc(C(=O)NC2CCCNC2)cc(OC)c1OC (stereo not given)	·	0.6%	16.6%	·
25	CCN(CC)CCOc1ccc(C(=C(Cl)c2ccccc2)c2ccccc2)cc1	·	·	·	·
26	CC[C@H]1OC(=O)[C@H](C)[C@@H](O[C@H]2C[C@@](C)(OC)[C@@H](O)[C@H](C)O2)[C@H](C)[C@@H](O[C@@H]2O[C@H](C)C[C@H](N(C)C)[C@H]2O)[C@](C)(O)C[C@@H](C)C(=O)[C@H](C)[C@@H](O)[C@]1(C)O	0.0%	-20.4%	4.8%	-3.2%
27	Cc1cn[nH]c1	-17.1%[60.1 µM]	·	16.5%[57.1 µM]	3.7%
28	CN1CCCN([C@@H](c2ccccc2)c2ccc(Cl)cc2)CC1	-2.5%[12 µM]	6.5%[29.3 µM]	·	·
29	OC[C@@H](O)C(O)[C@H](O)[C@@H](O)CO (stereo not given in full)	4.8%[60.1 µM]	1.5%	·	·
30	Cc1[nH]c2ccccc2c1/C=N/Nc1ccc([N+](=O)[O-])cc1S(=O)(=O)Nc1ccc(Cl)cc1	-10.1%	-10.7%	8.1%	-1.0%

no.	POLI inh	ALOX12 inh	APEX1 inh	BLM inh
16	1.3%&-12.5%	-13.6%&-7.4%	3.8%	-0.9%
17	·	?	·	·
18	-4.6%	15.7%	7.8%	2.8%&4.5%
19	17.2%	-9.3%	-0.9%&3.6%&-5.2%	3.6%&6.3%&-4.4%
20	-6.3%	12.0%	-3.6%&13.1%	·
21	56.0%[activator]	?	22.5%	-0.3%
22	13.9%	1.4%	14.7%	·
23	·	·	·	0.1%[21.4 µM]
24	·	·	-1.8%	-7.2%
25	·	?	·	·
26	16.1%	14.9%	-0.3%&-7.1%	-2.9%
27	?	3.43µM*!	15.4%&2.1%	-2.4%
28	·	·	2.9%[21 µM]	1.7%[21.4 µM]
29	·	·	-1.9%	0.3%
30	2.7%	?	14.8%	-15.2%

One compound at a time (already shown). Order of values: POLK inh | Apoferritin bind | POLB inh | ERG Ets-DNA blk | POLI inh | ALOX12 inh | APEX1 inh | BLM inh
Nc1[nH]c(=O)ncc1F across the screens: 11.4% | 5.2% | 21.3%&17.2% | 10.6% | 56.0%[activator] | ? | 22.5% | -0.3%
Cc1[nH]c2ccccc2c1/C=N/Nc1ccc([N+](=O)[O-])cc1S(=O)(=O)Nc1ccc(Cl)cc1 across the screens: -10.1% | -10.7% | 8.1% | -1.0% | 2.7% | ? | 14.8% | -15.2%
CN1CCCN([C@@H](c2ccccc2)c2ccc(Cl)cc2)CC1 across the screens: -2.5%[12 µM] | 6.5%[29.3 µM] | · | · | · | · | 2.9%[21 µM] | 1.7%[21.4 µM]
Clc1ccc([C@H](Cn2ccnc2)OCc2c(Cl)cccc2Cl)c(Cl)c1 across the screens: -17.2%[19.4 µM] | -6.0%[29.3 µM] | · | · | · | · | · | 0.1%[21.4 µM]

(continued)
no.	SMILES	POLK inh	Apoferritin bind	POLB inh	ERG Ets-DNA blk
31	NS(=O)(=O)c1ccc(C(=O)O)cc1	-13.2%	6.1%	-17.2%	3.8%
32	COC(=O)[C@H]1[C@H]2C[C@@H]3c4[nH]c5cc(OC)ccc5c4CCN3C[C@H]2C[C@@H](OC(=O)c2cc(OC)c(OC)c(OC)c2)[C@@H]1OC	-4.2%[60.1 µM]	·	?	6.4%
33	CC(C)(Oc1ccc(C2CC2(Cl)Cl)cc1)C(=O)O (stereo not given)	-15.0%[60.1 µM]	·	17.5%[57.1 µM]	2.2%
34	CC(=O)N[C@@H](CS)C(=O)O	-15.6%[60.1 µM]	1.1%	54.8%	-4.6%
35	CC1CC2C(C(O)CC3(C)C2CCC3(O)C(=O)CO)C2(C)C=CC(=O)C=C12 (stereo not given)	8.0%	·	·	-8.8%
36	C#C[C@]1(O)CC[C@H]2[C@@H]3CCC4=C(CCC(=O)C4)[C@H]3CC[C@@]21C	0.0%	-4.9%	-0.1%	13.1%
37	Cc1cn([C@H]2C=C[C@@H](CO)O2)c(=O)[nH]c1=O	-13.4%[60.1 µM]	-8.5%&-12.1%&4.6%	-1.0%	3.0%&21.0%
38	Cc1ccc(/C(=C/CN2CCCC2)c2ccccn2)cc1	-9.2%[19.4 µM]	-3.8%[29.3 µM]	·	·

no.	POLI inh	ALOX12 inh	APEX1 inh	BLM inh
31	-16.7%	-10.5%	-2.8%	2.9%&0.0%
32	?	-25.4%	43.6%&-0.8%&-12.2%	-10.4%
33	-6.8%	?	5.6%&14.2%	-3.4%
34	-21.3%	-13.4%	7.6%&2.3%	-2.3%&0.6%
35	61.6%[activator]	-0.2%	·	·
36	-10.0%	-18.4%	-1.7%[21 µM]	-12.5%
37	9.6%	6.7%	19.1%&13.2%&2.3%&5.1%&2.3%&-3.3%	-4.5%&0.4%&-4.0%
38	·	120.1%[activator]	-6.5%	-4.8%

Two entries from above, bar-delimited:
# | SMILES | POLK inh | Apoferritin bind | POLB inh | ERG Ets-DNA blk | POLI inh | ALOX12 inh | APEX1 inh | BLM inh
34 | CC(=O)N[C@@H](CS)C(=O)O | -15.6%[60.1 µM] | 1.1% | 54.8% | -4.6% | -21.3% | -13.4% | 7.6%&2.3% | -2.3%&0.6%
35 | CC1CC2C(C(O)CC3(C)C2CCC3(O)C(=O)CO)C2(C)C=CC(=O)C=C12 (stereo not given) | 8.0% | · | · | -8.8% | 61.6%[activator] | -0.2% | · | ·

High-throughput results as filed in PubChem BioAssay.
